TSHR agonist – activates the human thyroid stimulating hormone receptor; P16473; HEK293-CNG-TSHR cells (CNG channel as cAMP sensor), membrane potential dye, cAMP; Potency, µM (titrated, usually from 57.1 µM), inactives show at the top dose activation, hits mostly activators; 73,000 compounds, 0.48% hits; AID 926; active = well fitted activation curve of enough size with the parental cells flat; inconclusive = any curve in the parental cells; inactive = parental cells flat and receptor cells flat or falling; note: potency is the fitted concentration of half-maximal effect; % of control where 0% means no effect; weak receptor curves with flat parental cells got no call and are not listed
Target sequence (P16473 whole entry, looked up): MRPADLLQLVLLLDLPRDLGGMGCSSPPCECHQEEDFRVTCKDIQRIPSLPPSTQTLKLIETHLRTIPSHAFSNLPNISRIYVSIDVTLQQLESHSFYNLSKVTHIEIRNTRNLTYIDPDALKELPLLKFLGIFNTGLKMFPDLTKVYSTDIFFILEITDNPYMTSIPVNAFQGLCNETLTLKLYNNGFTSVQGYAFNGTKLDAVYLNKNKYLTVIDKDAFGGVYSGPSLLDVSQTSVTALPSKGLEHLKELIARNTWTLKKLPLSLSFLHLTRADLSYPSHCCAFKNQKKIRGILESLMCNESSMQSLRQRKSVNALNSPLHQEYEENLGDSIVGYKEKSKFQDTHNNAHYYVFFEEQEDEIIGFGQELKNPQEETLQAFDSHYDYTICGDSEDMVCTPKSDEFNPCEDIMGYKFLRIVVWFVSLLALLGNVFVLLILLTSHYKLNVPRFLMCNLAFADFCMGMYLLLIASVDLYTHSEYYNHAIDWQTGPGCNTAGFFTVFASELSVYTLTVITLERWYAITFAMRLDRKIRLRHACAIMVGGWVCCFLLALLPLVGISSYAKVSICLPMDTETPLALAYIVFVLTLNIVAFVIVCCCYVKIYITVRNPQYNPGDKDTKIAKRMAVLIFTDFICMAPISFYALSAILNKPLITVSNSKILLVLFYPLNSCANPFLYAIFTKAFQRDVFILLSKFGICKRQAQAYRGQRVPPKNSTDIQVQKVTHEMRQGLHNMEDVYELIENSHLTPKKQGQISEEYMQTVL
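HEK 293 cells stably expressing TSHR and a modified CNG channel, with CNG-only parental cells as counterscreen, were preloaded 60 min at room temperature with membrane potential dye containing 100 uM RO 20-1724. Compound exposure was 30 min, and depolarization was read as fluorescence at 590 nm.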
AID923 – qHTS Assay for Allosteric/Competitive Inhibitors of Caspase-1: Spectroscopic Profiling in AFC Spectral Region; compound fluorescence, AFC spectral region (405/520 nm); almost no hit is shown here; Potency, µM (top dose mostly 57.5 µM), for inactives: at the highest dose fluorescence increase, hits mostly activators; 75,000 compounds, 1.1% hits; active = well fitted activation curve with a large enough effect; inconclusive = small, poorly fitted or top-dose-only effect;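 note: potency is the fitted concentration of half-maximal effect; 0% is about no effect; scaled to a free AFC standard on each plate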
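Baseline compound fluorescence (AFC region, 405 nm ex/520 nm em) taken from the intercept of kinetic reads with 50 nM caspase-1 and 5 uM Ac-WEHD-AFC; normalized to an on-plate AFC standard curve; compounds titrated up to 57 uM.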
A488 fluor – compound fluoresces in the A488 spectral region; 59,000 compounds, 0.1% hits; compound autofluorescence, A488 spectral region, dye equivalency; active compounds read high; max dye equivalency, M; active = above 10 nM dye equivalent; inconclusive = 1 to 10 nM; inactive = 1 nM or less; about half of its hits are not listed in these tables;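 note: highest value over a series up to 38 µM; compound alone in buffer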
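Read-out: relative fluorescence at 480/540 nm, expressed as Alexa 488 dye-equivalent concentration from a six-point A488 standard included per plate. Conditions: 100 mM Tris, pH 8.0; 15 min incubation, room temperature.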
Resorufin autofl – compound fluoresces in the resorufin spectral region. Compound fluorescence, resorufin region 547/598 nm, buffer; active compounds read high. max dye-equivalent concentration, M. 59,000 compounds, 0.04% hits. AID 588; active = above 10 nM dye equivalent; inconclusive = 1 to 10 nM; inactive = 1 nM or less; a few of its hits are not listed in these tables; note: highest value over a series up to 38 µM
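Dye-equivalent concentration values derive from comparing each well's 547/598 nm fluorescence against resorufin standards included on every plate. Incubation was 15 min at room temperature in 100 mM Tris, pH 8.0.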
A647 autofl – compound autofluorescence in A647 spectral region | Compound fluorescence, A647 channel (570/671 nm), Tris buffer | max dye-equivalent concentration, M | 59,000 tested, under 10 active; active means above 1 µM dye equivalent; inconclusive means 0.1 to 1 µM; inactive means 0.1 µM or less;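 note: values scaled relative to a standard on each plate; highest value over a series up to 38 µM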
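Buffer was dispensed, compounds and Alexa 647 standards were pin-transferred, and plates sat 15 min at room temperature. Intensity at 570/671 nm was then converted to dye-equivalent concentration using the plate's A647 standard curve.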
Numbers without * were called inactive; i = inactive; ? = inconclusive; . = not tested or not shown; [ ] = remark or other dose. These rows are one share of the data, so the mix of outcomes need not match the whole.

Order of results – TSHR agonist	AID923	A488 fluor	Resorufin autofl	A647 autofl
- COCCOC(=O)C1=C(N)OC2=C(C(=O)CC(C)(C)C2)C1c1cccnc1 (centres undefined)
    8.3%	-2.3%	i	i	1e-09
- CCOC(=O)c1c(C)n(C)c2ccc(OCC(O)CN3CCN(C)CC3)cc12 (centres undefined)
    17.2%	-1.2%	.	.	.
- CCC(C)N(C(=O)c1csnn1)C(C(=O)NCc1ccc(F)cc1)c1ccco1 (centres undefined)
    0.4%	-0.8%	i	i	5.6e-09
- O=C(CSc1oc(-c2ccco2)nc1S(=O)(=O)c1ccc(Cl)cc1)NCC1CCCO1 (centres undefined)
    -2.8%[11.4 µM]	0.2%	i	i	2.41e-08
- CCC(=O)N1CCN(C(C)=O)C1c1ccccc1 (centres undefined)
    ?	0.0%	i	i	1.09e-08
- Cc1nc(NC(C)C)c2oc3ccccc3c2n1
    6.2%	-1.2%	i	i	2.72e-08
- CCc1cccc2c(-c3ccccc3)c3c(nc12)OCC3
    ?	-0.4%	.	.	.
- CCc1ccccc1NC(=O)c1cc(-c2cccc(O)c2)on1
    -6.0%	-1.2%	.	.	.
- Cc1ccc(C(=O)N(CC(=O)NC2CCCC2)Cc2cccs2)s1
    ?	-0.1%	i	i	1e-09
- CCSc1nnc2c(n1)OC=Nc1ccc(Br)cc1-2
    -13.5%	-1.3%	i	i	2.52e-08
- CSc1ccccc1NC(=O)COc1ccc(S(=O)(=O)N2CCCC2)cc1
    8.2%	-1.4%	i	i	4.3e-09
- Cc1cc(N2CCN(c3ccccn3)CC2)n2c(nc3ccccc32)c1C#N
    ?	4.9%	i	i	1e-09
- Cc1cc(Cl)c(S(=O)(=O)NCC2CCCO2)cc1OCC(N)=O (centres undefined)
    -7.4%	0.9%	i	i	1e-09
- COC(=O)Nc1ccc(OCc2ccccc2)cc1
    -2.6%	-0.5%	i	i	2.6e-08
- CCC(=O)N1CCN(c2ccc(NC(=O)c3ccco3)cc2)CC1
    -1.4%	0.3%	i	i	1.05e-08
- COC(=O)n1c(=O)oc2cc(S(=O)(=O)N3CCCCC3)ccc21
    -6.6%	-1.3%	i	i	7.6e-09
- CCN(CC)S(=O)(=O)c1ccc2[nH]cc(C(=O)NCCC3=CCCCC3)c(=O)c2c1
    -3.2%	-1.4%	i	i	6.8e-09
- CSc1nc(NC(C)=O)nc(C)c1Cl
    .	.	i	i	8.35e-08
- Cc1ccc2[nH]c(=O)c(-c3noc(C(C)C)n3)cc2c1
    9.3%	0.3%	.	.	.
- CC1(C)CC(=O)C2=C(C1)NC(SCC(=O)Nc1ccccc1)=C(C#N)C21CCCCC1
    3.5%	8.0%	i	i	3.66e-08

Continued, starting with the last four of the part before.
Order of results – TSHR agonist	AID923	A488 fluor	Resorufin autofl	A647 autofl
- CCN(CC)S(=O)(=O)c1ccc2[nH]cc(C(=O)NCCC3=CCCCC3)c(=O)c2c1
    -3.2%	-1.4%	i	i	6.8e-09
- CSc1nc(NC(C)=O)nc(C)c1Cl
    .	.	i	i	8.35e-08
- Cc1ccc2[nH]c(=O)c(-c3noc(C(C)C)n3)cc2c1
    9.3%	0.3%	.	.	.
- CC1(C)CC(=O)C2=C(C1)NC(SCC(=O)Nc1ccccc1)=C(C#N)C21CCCCC1
    3.5%	8.0%	i	i	3.66e-08
- O=S(=O)(NCCC1=CCCCC1)c1cccc2nsnc12
    -9.3%	0.9%	i	i	3.1e-09
- Cc1ccc(-c2csc3nc(C)n(-n4cccc4)c(=O)c23)o1
    9.0%	2.1%	.	.	.
- CC(C)C(=O)Nc1ccc(NC(=O)c2cccs2)cn1
    -3.4%	-0.5%	i	i	2.54e-08
- CCN(CC)CCn1c(OC)cc(=O)[nH]c1=O
    5.5%	-1.0%	i	i	2.3e-09
- O=c1c2cn[nH]c2nc(SCc2ccc3c(c2)OCCO3)n1-c1ccccc1
    .	0.0%	i	i	2.93e-08
- Cc1ccc(C2C(C#N)=C(N)SC(N)=C2C#N)c(C)c1
    -7.0%	5.5%	i	i	1.95e-08
- Cc1nnc(SCC(=O)Nc2cc(C(F)(F)F)ccc2N2CCOCC2)o1
    6.4%	-2.2%	i	i	8.01e-08
- CCN(CC)C(=O)C1CCCN(C/C(C)=C/c2ccccc2)C1 (centres undefined)
    7.8%	-0.4%	.	.	.
- Cc1nc2cc(NC(=O)N3CCN(c4ccccn4)CC3)ccc2o1
    -4.8%	-2.6%	i	i	8.4e-09
- O=C(c1nnc(Cc2ccc(Cl)cc2)o1)N1CCc2ccccc2C1
    25.2%	0.1%	.	.	.
- COc1ccc(O)c(-c2c(-c3ccc(Cl)cc3)n[nH]c2C)c1
    -24.2%	-2.6%	i	i	1.85e-08
- CCOc1ccc2cc(C#N)c(SCC(=O)N3CCCC3)nc2c1
    6.9%	2.1%	i	i	5.02e-08
- CN1CCc2c(n(CC(O)CN3C(=O)c4ccccc4S3(=O)=O)c3ccccc23)C1=O (centres undefined)
    .	.	i	i	4.16e-08
- COc1ccc(Cl)cc1NC(=O)c1cnc2n(c1=O)CCS2
    -14.0%	1.1%	.	.	.
- Cc1ccccc1NS(=O)(=O)c1ccc2[nH]cc(C(=O)NCCCN3CCOCC3)c(=O)c2c1
    1.6%	0.9%	i	i	1.92e-08
- O=C(NCc1ccncc1)Nc1ccc(F)cc1
    -13.0%	0.8%	i	i	2.92e-08
- COc1cccc(Nc2ncc3nc(-c4cn(C)c5ccccc45)c(=O)n(CCC#N)c3n2)c1
    -11.6%	5.5%	i	i	2.5e-08
- CN(CC(=O)Nc1sccc1C#N)C1CCCCC1
    12.5%	12.3%	i	i	1e-09
- Cc1noc(C)c1COC(=O)c1cccc(S(=O)(=O)N2c3ccccc3CC2C)c1 (centres undefined)
    ?	2.3%	i	i	1e-09
- COCCNC(=O)c1c(N)n(/N=C/c2cccs2)c2nc3ccccc3nc12
    .	.	i	i	1e-09

Remaining list, next part.
Order of results – TSHR agonist	AID923	A488 fluor	Resorufin autofl	A647 autofl
- COc1cccc(S(=O)(=O)NCc2ccc(C(=O)NCc3ccco3)cc2)c1
    12.1%	-0.9%	i	i	4.66e-08
- O=C(NCCCO)c1nc2ccccc2s1
    -13.9%	-1.8%	i	i	7.8e-09
- Cc1ccc(-c2nc(CS(=O)CC(=O)NCCN3CCOCC3)c(C)o2)cc1 (centres undefined)
    -0.8%	-0.1%	.	.	.
- c1ccc(-c2noc(CN3CCN(c4ccccc4)CC3)n2)cc1
    8.5%	7.7%	.	.	.
- O=C(Nc1cccnc1)c1ccccc1Oc1ccccc1
    22.6%	-1.0%	i	i	1e-09
- CC(C)CCNC(=O)C1CCN(c2nc3ccccc3o2)CC1
    11.5%	-3.0%	i	i	5.3e-09
- COc1ccc(CC(CC(=O)O)C(=O)Nc2ccccc2)cc1 (centres undefined)
    -3.2%[11.4 µM]	-2.2%	i	i	3.43e-08
- C=CCOC(=O)C(C(C)=O)C(NC(=O)OC)c1cccs1 (centres undefined)
    1.4%[11.4 µM]	1.3%[11.5 µM]	.	.	.
- CCNc1nc(NC(C)(C)C)nc(N(C#N)CC)n1
    1.8%	2.4%	i	i	1.17e-08
- O=[N+]([O-])c1ccc(Cl)c(CNc2ncnc3c2ncn3[C@@H]2CCCCO2)c1
    0.3%[11.4 µM]	-0.4%[11.5 µM]	i	i	2.12e-08
- COc1ccc(/C=N/n2cnnc2)cc1COc1ccccn1
    1.5%	-0.2%	i	i	1e-09
- O=C(OCc1nnc(-c2ccccc2)o1)c1ccc2c(c1)OCO2
    ?	-1.5%	i	i	9.5e-09
- CCCCSc1nnc(-c2cc(Br)ccc2N)c(=O)[nH]1
    9.3%	0.0%	i	i	7.8e-09
- CNc1ncncc1-c1ccccc1CN(C)C
    3.2%	0.3%	i	i	3.12e-08
- OC(CN1CCN(c2ccccc2)CC1)c1c[nH]c2ccccc12 (centres undefined)
    -4.4%	-0.8%	i	i	4.8e-09
- O=C(c1c(O)c2ccc(Cl)cc2[nH]c1=O)C1CC1
    -0.2%	-3.2%	.	.	.
- Cc1ccc(S(=O)(=O)N2CCN(C(=O)CSc3nnc(-c4ccco4)o3)CC2)cc1
    0.9%	0.5%	i	i	1e-09
- CC(NC(=O)c1csc2ccccc12)C1CCCO1 (centres undefined)
    -3.6%	0.5%	i	i	1.92e-08
- CCC/C=C(\CCC)C(NC(=O)Cc1ccccc1)c1ccc(C(=O)OC)cc1 (centres undefined)
    ?	-0.5%	.	.	.
- COc1cc2[nH]c(=S)nc(NCC3CCCO3)c2cc1OC (centres undefined)
    0.0%	0.5%	i	i	1.7e-09

Carrying on.
Order of results – TSHR agonist	AID923	A488 fluor	Resorufin autofl	A647 autofl
- O=C(CC1Nc2ccccc2NC1=O)NCc1cccnc1 (centres undefined)
    -4.6%	1.7%	i	i	1e-09
- CCS(=O)(=O)N1CCCC(C(=O)NCCN2CCC(Cc3ccccc3)CC2)C1 (centres undefined)
    8.5%	0.9%	i	i	1e-09
- Nc1nnc(SCC(=O)NCc2ccc3c(c2)OCO3)s1
    -7.9%	-1.8%	i	i	1.31e-08
- CCOC(=O)CSc1nnc(-c2ccco2)n1-c1ccc(C)cc1
    12.8%	-1.6%	i	i	1e-09
- CSc1nnc(-c2ccccc2Cl)n1N
    -13.2%	0.8%	i	i	6.2e-09
- O=C(CSC1=NCCS1)N1CCc2ccccc21
    -0.2%	-2.2%	i	i	2.38e-08
- C(=C\CSc1ncn[nH]1)/CSc1ncn[nH]1
    5.5%	1.8%	i	i	1.4e-09
- COc1cccc(C2=NOC(C(=O)N3CCN(C(=O)c4ccco4)CC3)C2)c1 (centres undefined)
    0.3%	6.1%	.	.	.
- Cc1ccc(NC(=O)COC(=O)C2=COCCO2)cc1
    2.6%	-1.3%	i	i	1e-09
- O=C(CN1CCOCC1)Nc1ccc(NC(=O)CN2CCOCC2)c(Cl)c1
    -11.5%	1.9%	i	i	1e-09
- C(=N\n1cnnc1SCc1ccccc1)/c1ccco1
    -2.5%	-0.1%	.	.	.
- CN(c1ccc(C(=O)NCc2ccc3c(c2)OCO3)cc1)S(C)(=O)=O
    5.3%	0.5%	i	i	4.7e-09
- Cn1c(CN2CCOCC2)c(C#N)c2ccccc21
    7.5%	0.4%	i	i	1e-09
- O=C(CSc1oc(-c2ccccc2)nc1S(=O)(=O)c1ccc(F)cc1)NCC1CCCO1 (centres undefined)
    -3.5%[11.4 µM]	-0.3%	i	i	1.16e-08
- COc1cc(NS(=O)(=O)c2ccc(C)cc2C)cc(OC)c1OC
    27.8%	0.1%	i	i	1e-09
- COCCNc1nc(-c2ccoc2)nc2ccccc12
    ?	1.0%	i	i	1e-09
- Cc1ccc(S(=O)(=O)NCC(C)NS(=O)(=O)c2ccc(C)cc2)cc1 (centres undefined)
    .	-2.6%	i	i	3.17e-08
- CS(=O)(=O)N1CCN(c2nc3ccccc3s2)CC1
    ?	1.4%	i	i	2.87e-08
- Cc1ccccc1-n1nc2c(c1NC(=O)c1cc3ccccc3oc1=O)CS(=O)(=O)C2
    -2.8%	1.6%	i	i	1e-09
- CCOc1ccccc1N1CCN(S(=O)(=O)c2ccc(F)c(F)c2)CC1
    3.8%	0.0%	i	i	1e-09

Other structures follow:
Order of results – TSHR agonist	AID923	A488 fluor	Resorufin autofl	A647 autofl
- Cc1cccc2c1N(CC(=O)OC(C)C)C(=O)C2=O
    -2.5%[11.4 µM]	-3.9%	.	.	.
- COCCn1c(SCc2ccc(C(=O)OC)o2)nc2ccccc2c1=O
    ?	-1.0%	i	i	1e-09
- COC(=O)c1ccc(OCC2c3cc(OC)c(OC)cc3CCN2C(=O)C2CC2)cc1 (centres undefined)
    ?	-0.5%	i	i	3.7e-09
- COc1ccc(N(C)C(=O)CCS(=O)(=O)c2cccc3nonc23)c(OC)c1
    6.4%	1.1%	i	i	1.6e-08
